Screening results as filed in PubChem BioAssay.
TRPV1 potentiator: potentiators of human vanilloid receptor 1 (TRPV1); TRPV1-expressing cells, Fluo-8 calcium influx, capsaicin EC20 potentiation; host cell line not named in the record; control for the full effect not named in the record; actives 0.02% (n = 320,000); potentiation, % at 8.33 µM; Q8NER1; AID 540277; active means potentiation above 80%; inconclusive means 30% to 80%; inactive means below 30%; also: 0% is about no effect
Target sequence (Q8NER1 whole entry, looked up): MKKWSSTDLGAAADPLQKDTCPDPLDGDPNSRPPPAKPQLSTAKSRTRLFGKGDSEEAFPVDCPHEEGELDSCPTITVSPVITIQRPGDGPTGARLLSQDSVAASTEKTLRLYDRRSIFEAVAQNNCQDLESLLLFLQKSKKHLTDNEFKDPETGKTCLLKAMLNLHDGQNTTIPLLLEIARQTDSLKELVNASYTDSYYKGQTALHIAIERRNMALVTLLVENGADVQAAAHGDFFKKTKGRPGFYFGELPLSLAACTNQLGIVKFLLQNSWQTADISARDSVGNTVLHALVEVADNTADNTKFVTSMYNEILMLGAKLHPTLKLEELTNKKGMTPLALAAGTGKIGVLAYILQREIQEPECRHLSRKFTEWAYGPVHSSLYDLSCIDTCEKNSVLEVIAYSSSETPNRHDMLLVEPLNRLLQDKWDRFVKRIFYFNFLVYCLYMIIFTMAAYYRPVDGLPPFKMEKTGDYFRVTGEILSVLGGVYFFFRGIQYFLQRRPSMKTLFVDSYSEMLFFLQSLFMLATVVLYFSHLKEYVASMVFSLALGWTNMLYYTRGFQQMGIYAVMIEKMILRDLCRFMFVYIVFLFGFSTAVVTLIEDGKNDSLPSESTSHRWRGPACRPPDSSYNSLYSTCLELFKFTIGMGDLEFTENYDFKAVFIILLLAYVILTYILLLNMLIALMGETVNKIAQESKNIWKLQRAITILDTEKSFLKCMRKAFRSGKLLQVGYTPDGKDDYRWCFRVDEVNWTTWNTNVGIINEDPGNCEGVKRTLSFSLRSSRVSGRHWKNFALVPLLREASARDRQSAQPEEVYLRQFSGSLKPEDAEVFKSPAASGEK
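Cells expressing TRPV1 were dye-loaded with Fluo-8 and read kinetically: 10 s baseline, 3 min after compound (agonist portion), then 2 min after EC20 capsaicin (allosteric enhancer portion). Calcium-bound dye fluorescence at 480/520 nm.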
gsp ag: agonists of gsp mutant (McCune-Albright syndrome) | Potency, µM (top dose mostly 76.9 µM), without a hit: at the top dose activation (cAMP increase), usual class: activators | AID 624287 | actives 0.13% (n = 340,000) | gsp mutant cells, cAMP HTRF, 30 min; control for the full effect not named in the record; active = well fitted activation curve with a large enough effect; inconclusive = small, poorly fitted or top-dose-only effect, or another doubt; inactive = no such curve, though single readings can be large or run the other way; cell line not stated here;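 also: phosphodiesterase inhibitor Ro 20-1724 added with compounds to block cAMP breakdown; potency is read from the fitted curve at half-maximal effect; nearly all actives have a fitted effect of over 60% in size; about a fifth of the inactives were tested at one dose only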
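Cells in DMEM/10% FBS with G418 were pretreated with compounds in DMSO plus […] (300 uM stock) for 30 min at 37C. cAMP was measured by HTRF (cAMP-d2 plus anti-cAMP antibody-K) after 30 min at room temperature.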
Menin-MLL FL inh: displaces fluorescein MLL peptide from human menin. AID 1766. 290,000 tested, under 10 active. FP activity change, % at 61.4 µM. Fluorescence polarization, fluorescein-MLL peptide displacement from menin; inconclusive = falling polarisation curve, or a change in total fluorescence; inactive = total fluorescence flat and polarisation flat or rising; no compound was filed as active; the % refers to the polarisation; negative = inhibition;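 also: % of control where 0% means no effect; inhibitors lower the polarisation; unlabelled MLL peptide was the positive control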
CtBP-E1A inh: CtBP/E1A binding inhibition; AlphaScreen GST-E1A/His-CtBP binding, 1536-well; hits give low values; control for the full effect not named in the record; activity change, % (test concentration not listed); actives 0.49% (n = 340,000); AID 651724; in the data active means activity change below about -65%; inconclusive means about -30% to -65%; inactive means above about -30%; also: % is scaled to controls: 0 for no effect and ±100 for the full control effect; compound concentration not given in the record
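In 5 uL wells, 23 nL compound meets equimolar GST-E1A and His-CtBP (5X stock 125 nM each) for 2 h, 37 °C. Beads (5X, 50 ug/mL) then 1 h, 37 °C, dark.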
ClpP mod: qHTS Assay for Activators of ClpP | purified B. subtilis ClpP, FRET peptide cleavage, 20 min | Potency, µM (highest dose often 57.5 µM), without a hit: top-dose activity change, negative = active | actives 1.9% (n = 340,000) | AID 651965, 2013; active = well fitted falling curve with a large enough effect; inconclusive = small, poorly fitted or top-dose-only effect; inactive = no such curve, though single readings can be large or run the other way; also: potency is read from the fitted curve at half-maximal effect; the source files actives as falling curves though it sought activators and does not explain the sign; nearly all actives have a fitted effect of over 65% in size; many hits overshoot -100%
Target sequence (P80244 whole entry, looked up): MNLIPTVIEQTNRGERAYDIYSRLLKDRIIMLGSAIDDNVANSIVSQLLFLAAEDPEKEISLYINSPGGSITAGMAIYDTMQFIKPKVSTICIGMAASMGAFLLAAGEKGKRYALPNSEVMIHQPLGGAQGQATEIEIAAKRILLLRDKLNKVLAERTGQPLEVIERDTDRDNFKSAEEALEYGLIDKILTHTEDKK
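ClpP 10 microg/mL final, pH 8 Tris/KCl buffer with BSA, glycerol, Tween-20; compound pinned in; FRET-FV substrate; RT 20 min; Ex320/Em430; ΔFRET vs ADEP 5.8 microM, DMSO, no enzyme.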
Sfp inh: Sfp phosphopantetheinyl transferase inhibition. Q9F4F7. Biochemical Sfp PPTase activity, qHTS. Potency, µM, without a hit: max response, negative = inhibition, usual class: inhibitors. actives 3.5% (n = 310,000). AID 1490; active = well fitted inhibition curve with a large enough effect; inconclusive = small, poorly fitted or top-dose-only effect, or another doubt; inactive = no such curve, though single readings can be large or run the other way;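 also: the enzyme is Sfp with the accession as filed and its product quenches rhodamine fluorescence; potency is read from the fitted curve at half-maximal effect; 0% = enzyme reaction without inhibitor and -100% = no enzyme wells; top concentration of the series not given in the record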
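Fluorescence-quenching assay with 15 nM Sfp, 5 uM rhodamine-CoA and 12.5 uM BHQ-2-labelled ybbR peptide in pH 7.6 Hepes/MgCl2 buffer. Enzyme was pre-incubated with compound for 15 min at room temperature. Rate was taken from the 30-min fluorescence change (525/598 nm).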
gsp antagonist: gsp mutant antagonism | gsp-mutant cells, cAMP HTRF, 30 min; control for the full effect not named in the record | Potency, µM (doses to about 76.9 µM), without a hit: at the highest dose activity change, negative = inhibition, actives largely listed as inhibitors | actives 0.4% (n = 340,000) | AID 624288; active = falling curve of any shape with a large fitted effect; inconclusive = falling curve, mostly with a smaller effect; inactive = flat or rising curve; cell line not stated here;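 also: intracellular cAMP measured with PDE inhibitor Ro 20-1724 present during compound exposure; potency is read from the fitted curve at half-maximal effect; % is scaled to controls: 0 for no effect and ±100 for the full control effect; nearly all actives have a fitted effect of over 65% in size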
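HTRF cAMP measurement after 30 min RT detection following 30 min, 37C compound treatment alongside […] (added as 300 uM solution) in G418-selected cells seeded at 2000/well and grown 16–24 h.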
An asterisk follows results filed as active; ? = inconclusive; / = not tested or not shown; [ ] = remark or other dose.

SMILES	TRPV1 potentiator	gsp ag	Menin-MLL FL inh	CtBP-E1A inh	ClpP mod	Sfp inh	gsp antagonist
CCCCCCn1c(=O)n2n(c1=O)[C@@H]1CN(S(=O)(=O)c3ccc(C)cc3)C[C@]1(O)[C@@H](OC(=O)NC1CCCC1)C2	/	-19%	/	3	-1.2%	/	/
CCOC(=O)N1CCN(C(=O)CCCn2c(=S)[nH]c3ccsc3c2=O)CC1	3	11%[15.4 µM]	0.3	-2	-3.1%	56µM*	-23%
CCN(CC)C(=O)CCSc1nnc(-c2ccncc2)o1	10	2%[15.4 µM]	6.7	0	0.7%	3%	0%
Cn1c(=O)[nH]c(=O)c2c1nc(Br)n2Cc1ccccc1F	2	-5%	0.0	-1	1.4%	0%	4%
O=C(NCc1ccccc1)C(c1ccc(F)cc1)N(Cc1cccs1)C(=O)c1cnccn1 (stereo not given)	-11	-8%[15.4 µM]	2.0	-2	/	-4%	-6%
COc1ccccc1N1CCN(C(=O)C2CCN(C(=O)c3ccccc3Cl)CC2)CC1	1	1%	/	2	0.1%	2%	2%
CCC1(CC)N([O-])C(C)=C(c2ccccc2)[N+]1=O	18	21%	0.4	5	-2.7%	-1%	6%
Cc1ccc(-c2nnc(-c3cc(C)on3)o2)cc1	-17	11%	3.9	5	-21%	8%	3%
CC1(C)CC(=O)N(c2ccc(Cl)c(Cl)c2)C(=O)C1	-1	-8%[15.4 µM]	-1.4	2	-0.4%	16%	12%
Cc1cc(C)cc(OCC(=O)N(Cc2ccco2)c2c(N)n(Cc3ccccc3)c(=O)[nH]c2=O)c1	9	-28%	/	/	-4.7%	/	6%

Compounds above that contain a thiophene ring, fused or not:
SMILES	TRPV1 potentiator	gsp ag	Menin-MLL FL inh	CtBP-E1A inh	ClpP mod	Sfp inh	gsp antagonist
CCOC(=O)N1CCN(C(=O)CCCn2c(=S)[nH]c3ccsc3c2=O)CC1	3	11%[15.4 µM]	0.3	-2	-3.1%	56µM*	-23%
O=C(NCc1ccccc1)C(c1ccc(F)cc1)N(Cc1cccs1)C(=O)c1cnccn1 (stereo not given)	-11	-8%[15.4 µM]	2.0	-2	/	-4%	-6%

(next part)
SMILES	TRPV1 potentiator	gsp ag	Menin-MLL FL inh	CtBP-E1A inh	ClpP mod	Sfp inh	gsp antagonist
NC(=O)c1c(NC(NC(=O)c2ccco2)C(=O)c2ccc(Cl)cc2)sc2c1CCCC2 (stereo not given)	?	-48%[inhibitor]	3.8	5	0.3%	56µM*	-13%
COc1ccc(C)cc1NC(=O)CN1CCN(c2ccccc2F)CC1	1	8%	-2.7	-13	-3.2%	-3%	-20%
O=C1c2oc3ccccc3c(=O)c2C(c2cccnc2)N1Cc1ccco1 (stereo not given)	-2	0%	2.0	0	1.6%	-20%	-6%
COc1cc(-c2nc3ccccn3c2/N=C/c2cc(OC)c(OC)c(OC)c2)ccc1O	/	22%	/	-9	-12%	/	?
O=C(Oc1ccc2ccccc2c1Br)N1CCCCCC1	7	2%	-4.8	19	0.3%	-2%	?
COc1ccccc1NC(=O)OCC#CCOC(=O)Nc1ccccc1OC	10	?	1.5	/	0.2%	11%	-4%
COc1ccc(-n2nc(N)c(C(N)=O)n2)cc1	8	10%[15.4 µM]	-4.6	/	/	10%	12%
Cc1ccc(C(=O)COC(=O)C2CC(=O)N(c3nc(-c4ccccc4)cs3)C2)cc1 (stereo not given)	30	38%	6.2	11	0.0%	12%	1%
CCOC(=O)N1CCN(C(=O)CCc2ccc(S(=O)(=O)NC(C)(C)C)cc2)CC1	-4	-27%	-0.1	7	0.5%	2%	5%
O=C(NCC(c1cccnc1)N1CCOCC1)c1ccco1 (stereo not given)	5	-13%	-1.8	12	0.6%	2%	-3%
COc1cccc(C(C(=O)NCC2CCCO2)N(CC2CCCO2)C(=O)CN2C(=O)c3ccccc3S2(=O)=O)c1 (stereo not given)	4	1%[15.4 µM]	2.7	12	/	13%	7%
O=C(Cn1cnc2c(nnn2-c2ccc(F)cc2)c1=O)N1CCCc2ccccc21	-13	-36%[inhibitor]	0.2	13	-0.2%	-6%	-12%
Cc1cccc(NC(=S)N2CCCCC2c2cccnc2)c1C (stereo not given)	/	9%[15.4 µM]	-1.4	1	/	-1%	-8%
CC(=O)Nc1ccc(C(=O)OCC(=O)NC2CCCCCCC2)cc1	3	-3%[15.4 µM]	-3.8	5	-0.9%	-10%	6%
CN(C)c1ccc(C(=O)Nc2cc(C(F)(F)F)ccc2-n2cncn2)cc1	?	25%	-0.8	6	-9.1%	-5%	-19%
O=[N+]([O-])c1cccc(-c2nc3ccccc3s/c2=N/O)c1	-10	?	-0.2	-13	/	-20%	?
Cc1ccc(NS(=O)(=O)c2c(C(=O)N3CCCCCC3)c(C)n(C)c2C)c(C)c1	7	?	/	0	-1.5%	6%	0%
O=C(O)COn1c(-c2ccccc2)nc2ccc(Cl)cc21	7	-2%	-2.0	-5	/	8%	-1%
NC(=O)c1ccc(C(F)(F)F)n(Cc2ccc(F)c(F)c2)c1=O	2	-2%[15.4 µM]	8.8	0	/	23%	-11%
CCOc1ccc(-c2csc(NC(=O)C3CCCO3)n2)cc1 (stereo not given)	-1	-7%	19	-1	-2.2%	4%	-17%
O=C(CSc1nc2ccccc2s1)Nc1ccc(C(=O)O)cc1	1	5%	-3.0	0	-0.3%	17%	-1%
CCCC(=O)Nc1cccc(NC(=O)CN2CCN(c3ccccc3OC)CC2)c1	-18	-22%	4.3	-3	-0.9%	14%	-9%
Cc1cc(Cl)ccc1OCC(=O)Nc1nc(-c2cccnc2)cs1	?	1%	9.5	/	-0.4%	14%	8%
COc1cccc(C(C(=O)NCC2CCCO2)N(C(=O)Cn2nnc3ccccc32)c2ccccc2C(C)=O)c1OC (stereo not given)	-9	8%	/	-1	/	5%	-1%
COc1ccc(CNC(=S)N2CCN(S(=O)(=O)c3cccc(F)c3)CC2)cc1	-17	-2%	4.7	-12	0.3%	14%	5%
Cc1ccc(NC(=O)COC(=O)C2CC3C=CC2C3)cc1S(=O)(=O)N1CCCCC1 (stereo not given)	1	6%[15.4 µM]	0.9	3	1.6%	1%	-23%
Cc1nc2ccccc2c(C)c1C(=O)c1ccccc1	-2	1%[15.4 µM]	-0.4	/	/	13%	2%
Cc1ccc2nc(SCC(=O)c3c(C)[nH]c4ccccc34)[nH]c2c1	3	?	4.2	-11	-1.1%	1%	-10%
CCC(CO)NC1=CC(=O)CCC1 (stereo not given)	8	2%	-9.0	1	/	3%	3%
COc1ccc(C(=O)Nc2cc(C)on2)cc1	-15	4%	-0.4	-17	-3.6%	2%	9%
Cc1nn2c(NCCCN3CCOCC3)c3c(nc2c1-c1ccccc1)CCC3	-8	1%	1.6	-21	71%	-4%	-1%
Brc1ccccc1OCCOc1cccc2cccnc12	12	27%	/	0	-18%	6%	9%
COCCn1c(C)cc(/C=C2/NC(=O)N(c3cccc(Cl)c3)C2=O)c1C	7	-22%	2.1	/	-0.6%	11%	-13%
CC1CCCC(NC(=O)C2CCN(S(=O)(=O)c3cnc[nH]3)CC2)C1C (stereo not given)	18	-31%[inhibitor]	0.8	3	-0.6%	5%	3%
O=C(Nc1cccc(F)c1)N1CCN(C/C=C/c2ccccc2)CC1	-22	-1%	1.2	10	-2.1%	7%	6%
COc1ccc(Oc2cc(C)nc(Cl)n2)nn1	7	-19%	-1.1	/	-3.6%	-8%	10%
COc1cc2c(cc1O)CCN(C(=O)CSc1nncn1C)[C@@H]2C	-5	/	/	2	0.2%	/	3%
Cc1ccccc1NC(=O)NC1(C(=O)N2CCC(C(N)=O)CC2)CCCCC1	26	30%[15.4 µM]	2.4	20	-0.9%	27%	-9%
O=C(CCS(=O)(=O)c1cccc2nsnc12)N1CC(=O)N(CCc2ccccc2)C(=O)C1	7	9%	-0.1	8	-11%	-1%	-6%
Cc1cc(-n2c(SCC(=O)NCCC3=CCCCC3)nc3n[nH]c(C)c3c2=N)ccc1Cl	0	?	2.8	/	-13%	16%	23%
c1cc2c(cc1-c1[nH]ncc1CN1CC3C[C@@H]4CC1C[C@H](C3)C4)OCO2	11	26%	3.2	0	/	?	17%
O=C(CCC(=O)NNC(=S)Nc1ccccc1)NCc1ccccc1	-1	-2%	?	1	-1.9%	15%	1%
Cc1c(C(=O)NCc2ccc3c(c2)OCO3)oc2ccc(S(=O)(=O)N3CCC(C)CC3)cc12	-1	-31%[inhibitor]	4.6	-1	-23%	18%	2%
CCOc1cc2[nH]c(=O)n(CCCCC(=O)NC3CCCCCC3)c(=O)c2cc1OCC	-3	3%	3.6	-5	-21%	6%	-2%
Cc1ccc(-c2ccc(/C=N/NC(=O)Cc3nnc(N)s3)o2)cc1Cl	20	5%	4.0	-7	-17%	?	-16%
Cc1c(CC(=O)O)c(=O)oc2c(C)c(OCc3ccc(F)cc3Cl)ccc12	2	-16%	0.0	3	3.6%	19%	-2%
CCCCNC(=O)c1c(O)c2cccc3c2n(c1=O)CCC3	7	4%	-0.5	13	11µM*	-2%	32%[activator]
COc1ccc(C(NC(=O)CNC(C)=O)C(=O)Nc2ccc3c(c2)OCCO3)cc1 (stereo not given)	-3	-15%	0.9	0	1.2%	-5%	18%
c1ccc(OCc2nc3ccccc3s2)cc1	4	-1%	0.0	29	-0.8%	9%	0%
COc1ccc(OCCn2c(N)nc3ccccc32)cc1	6	-15%[15.4 µM]	2.4	6	0.5%	11%	10%

The list continues:
SMILES	TRPV1 potentiator	gsp ag	Menin-MLL FL inh	CtBP-E1A inh	ClpP mod	Sfp inh	gsp antagonist
O=c1c2ccccc2sn1-c1cccc(Cl)c1	/	?	/	-3	-0.6%	/	/
O=C(N[C@@H](Cc1ccccc1)C(=O)OCc1ccccc1)c1nc[nH]c1C(=O)N[C@@H](Cc1ccccc1)C(=O)OCc1ccccc1	?	/	1.0	-5	-0.6%	18%	6%
COc1cccc(-c2nn(-c3ccc(F)cc3)cc2C(=O)NCC2CCCO2)c1 (stereo not given)	-20	-19%	/	4	-1.9%	/	-5%
NNC(=O)c1cc2nc(-c3cccs3)cc(C(F)(F)F)n2n1	7	22%	-0.3	/	?	5%	-10%
CC(C)COC(=O)CNc1n[nH]c(=S)[nH]c1=O	-8	?	-1.5	9	-1.1%	?	7%
O=C(CN1C(=O)NC(Cc2c[nH]c3ccccc23)C1=O)NCCc1ccc(F)cc1 (stereo not given)	0	2%	5.9	/	1.5%	3%	3%
